Compound activity deposited in PubChem by Johns Hopkins Ion Channel Center.
KCNQ2 pot: enhances the rat KCNQ2 potassium channel. B-score at 10 µM. CHO-K1 KCNQ2, FluxOR thallium flux fluorescence; active compounds read high. actives 0.54% (n = 310,000);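 active = fluorescence ratio B-score at least 3 SD of library B-scores, with initial fluorescence B-score within 3 SD, cut at about 5.3 in these data; same plate scores as AID 2156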;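 also: B-score of peak minus minimum over baseline fluorescence ratio after K+ and Tl+ stimulus; positive B-score means potentiation of KCNQ2 with more thallium influx and brighter signal; only the inactives scoring about 0 or higher are listed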
Target sequence (O88943 whole entry, looked up): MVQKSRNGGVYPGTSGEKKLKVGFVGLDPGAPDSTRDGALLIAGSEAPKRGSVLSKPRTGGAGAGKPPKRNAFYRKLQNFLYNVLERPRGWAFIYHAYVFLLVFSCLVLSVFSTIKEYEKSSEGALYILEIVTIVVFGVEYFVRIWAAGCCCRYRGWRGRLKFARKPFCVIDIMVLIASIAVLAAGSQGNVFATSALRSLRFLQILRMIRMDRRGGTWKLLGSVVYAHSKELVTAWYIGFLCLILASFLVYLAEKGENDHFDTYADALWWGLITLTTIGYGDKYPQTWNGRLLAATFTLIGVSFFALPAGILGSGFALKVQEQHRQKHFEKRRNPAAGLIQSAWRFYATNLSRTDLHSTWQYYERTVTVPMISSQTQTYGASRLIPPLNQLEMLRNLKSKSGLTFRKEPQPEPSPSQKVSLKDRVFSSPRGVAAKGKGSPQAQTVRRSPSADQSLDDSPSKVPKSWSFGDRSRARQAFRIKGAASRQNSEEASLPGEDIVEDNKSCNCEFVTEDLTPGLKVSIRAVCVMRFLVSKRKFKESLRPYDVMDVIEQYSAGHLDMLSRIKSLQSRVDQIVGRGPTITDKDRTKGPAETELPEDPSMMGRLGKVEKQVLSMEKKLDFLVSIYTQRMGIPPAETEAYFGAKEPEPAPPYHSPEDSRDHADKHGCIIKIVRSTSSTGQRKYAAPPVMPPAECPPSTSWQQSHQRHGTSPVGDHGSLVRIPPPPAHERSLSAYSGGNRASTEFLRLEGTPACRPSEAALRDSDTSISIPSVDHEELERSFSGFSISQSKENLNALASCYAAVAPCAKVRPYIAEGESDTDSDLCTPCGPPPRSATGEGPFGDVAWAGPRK
KCNQ2 pot baseline: second read-out of KCNQ2 pot, no call of its own (marks repeat the call); B-score; compound at 10 µM; measured here: initial fluorescence intensity artifact check;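 brightness before thallium and not channel activity; 0 = typical well and far values either way flag optical interference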
Starred values were filed as active, the others as inactive. A portion of the library; rates above refer to the full screens.

KCNQ2 pot	KCNQ2 pot baseline	smiles
6.44*	2.65*	COc1ccc(C(O)(CCC(C)C)C(CN2CCOCC2)c2ccc(Cl)cc2)cc1 (centres undefined)
0.76	-0.57	COCCNc1nc(N)c([N+](=O)[O-])c(N2CCCCCC2)n1
0.58	1.69	S=C1NC2CCCCC2N1 (centres undefined)
1.36	-2.17	O=S(=O)(c1ccccc1)c1nc(-c2ccccc2)oc1N1CCOCC1
0.23	-0.5	N#C/C(=C\c1c[nH]c2ccccc12)c1nnc2n1CCCCC2
0.01	-0.29	O=C1c2ccccc2NC(c2ccc(O)c(O)c2)N1c1ccccc1Cl (centres undefined)
0.09	0.63	COc1ccc(CC(=O)NCC2CCCN(Cc3ccc(SC)cc3)C2)cc1 (centres undefined)
0.57	-0.28	COc1ccc(OCC(=O)Nc2ccc3c(c2)OCO3)cc1
0.44	0.7	Cc1cccc(N(CC(=O)NC(C)(C)C)C(=O)CS(=O)CC(=O)Nc2ccc(F)cc2)c1 (centres undefined)
0.65	0.12	O=c1nc(-c2ccccc2)cc(C(F)(F)F)[nH]1
0.53	0.3	O=C(O)c1ccc(S(=O)(=O)NCc2cccnc2)cc1
0.22	-0.31	Cc1nn(C)cc1/C=C(/C#N)C(N)=O
1.9	-1.07	NS(=O)(=O)c1ccc(NCC2COc3ccccc3O2)c([N+](=O)[O-])c1 (centres undefined)
2.37	-0.79	COC(=O)c1cn(NC(=O)c2cccnc2)c(=O)c2ccccc12
0.81	-1.2	Cc1ccc(-c2csc(NC(=O)c3ccc4c(=O)n5c(nc4c3)CCCCC5)n2)cc1

Continued:
KCNQ2 pot	KCNQ2 pot baseline	smiles
0.35	0.3	CCc1ccc(N2CC(C(=O)NCCC3=CCCCC3)CC2=O)cc1 (centres undefined)
1.53	0.45	O=C(CN1CCC(NC(=O)c2cccc(F)c2)CC1)Nc1ccc(Br)cc1
0.34	1.23	Cc1oc2c(c(C)cc3oc(=O)c(CC(=O)NCCCN4CCCC4=O)c(C)c32)c1C
0.16	-0.13	Cc1ccc(C2(c3noc(CN4CCC(C(=O)N5CCOCC5)CC4)n3)CCCC2)cc1
0.2	2.16	COc1ccc(CNC(=O)c2ccc3oc(C(C)C)nc3c2)cc1
1.09	-0.07	COc1cc(/C=N/Nc2ncnc3sc4c(c23)CCC4)ccc1O
0.08	-0.36	CCn1ccnc1CNC(=O)CC1C(=O)NCCN1CC(c1ccccc1)c1ccccc1 (centres undefined)
0.1	-0.16	Cc1ncsc1CCOC(=O)c1ccc([N+](=O)[O-])cc1
0.54	0.05	COc1cccc(NC(=S)NCc2ccncc2)c1
0.79	-3.44	Cc1ccc(/C(N)=N/OC(=O)CCC2CCCCC2)cc1
2.75	-0.29	Cc1nn(C)cc1C(=O)Nc1c(C)nn(Cc2ccccc2Cl)c1C
2.32	1.72	COc1cccc(C(NC(=O)c2ccccc2F)NC(=O)c2ccccc2F)c1
0.12	-1.49	COCCCNC(=O)CCc1ccccc1
0.31	0.42	Cc1cccc(C(=O)OCC(=O)Nc2nccs2)c1
1.68	-2.5	c1ccc(Cn2ncc3c(N4CCN(C(c5ccccc5)c5ccccc5)CC4)ncnc32)cc1

(list continues)
KCNQ2 pot	KCNQ2 pot baseline	smiles
0.27	0.32	CCc1ccc(C(=O)C(C)OC(=O)c2nn(C)c(=O)c3ccccc23)cc1 (centres undefined)
1.13	1.02	O=C(N(c1ccccn1)c1ccccn1)C12CC3CC(CC(Cl)(C3)C1)C2
0.19	0.9	CSc1ccc(C(=O)C2CCCN(C(=O)Cn3cnnn3)C2)cc1 (centres undefined)
1.37	-0.52	CC(CC(F)(F)F)N1CCC(n2nccc2NC(=O)CCOc2ccccc2)CC1 (centres undefined)
0.04	0.01	COc1ccc(OCCCC(=O)OCC(=O)Nc2ccc(Cl)cn2)cc1
1.2	0.53	NC(=O)c1cc(S(=O)(=O)NC2CCCCC2)co1
0.03	-0.26	COc1cc(C(c2oc(CO)cc(=O)c2O)c2oc(CO)cc(=O)c2O)cc(OC)c1OC
1.9	-0.06	Cc1sc2ncn(CC(=O)N(C)C3CCCCC3)c(=O)c2c1C
0.04	-0.85	Cc1c(O)cc2n(c1=O)-c1ccccc1C2(C)C
1.54	-0.45	O=C(CC1SCCNC1=O)Nc1cccc(Cl)c1 (centres undefined)
1.04	0.09	CCCN1CCC(=NNC(=O)CSc2cc(C)c(Br)cc2C)CC1
0.08	-0.18	Cc1ccc(-c2ccc(/C=N\NC(=O)c3cc4c(ccc5ccccc54)o3)o2)cc1[N+](=O)[O-]
0.54	-0.17	Cc1ccc2cc(C#N)c(N3CCN(C)CC3)nc2c1
0.12	0	CC(C)=CCN1CCN(Cc2nc(-c3ccc(F)cc3)cs2)CC1CCO (centres undefined)
0.98	-2.37	Cc1ccnc(NC2OC(=O)c3ccccc32)c1 (centres undefined)

Full records as entered above. Screens in order: KCNQ2 pot	KCNQ2 pot baseline
`O=C(N(c1ccccn1)c1ccccn1)C12CC3CC(CC(Cl)(C3)C1)C2` as listed: 1.13	1.02
`Cc1ccnc(NC2OC(=O)c3ccccc32)c1` (centres undefined) as listed: 0.98	-2.37
`O=C(CC1SCCNC1=O)Nc1cccc(Cl)c1` (centres undefined) as listed: 1.54	-0.45
`CCCN1CCC(=NNC(=O)CSc2cc(C)c(Br)cc2C)CC1` as listed: 1.04	0.09
`Cc1c(O)cc2n(c1=O)-c1ccccc1C2(C)C` as listed: 0.04	-0.85

A second format for some results above.
COc1cccc(NC(=S)NCc2ccncc2)c1
  KCNQ2 pot: 0.54	KCNQ2 pot baseline: 0.05
Cc1ccc(/C(N)=N/OC(=O)CCC2CCCCC2)cc1
  KCNQ2 pot: 0.79	KCNQ2 pot baseline: -3.44
Cc1nn(C)cc1C(=O)Nc1c(C)nn(Cc2ccccc2Cl)c1C
  KCNQ2 pot: 2.75	KCNQ2 pot baseline: -0.29

Next section
KCNQ2 pot	KCNQ2 pot baseline	smiles
1.44	1.2	Cn1ccnc1C1CCCCN1C(=O)c1cc(COc2ccc(F)cc2Cl)on1 (centres undefined)
1.25	0.02	CCn1cc(/C=N\NC(=O)c2ccc(F)cc2)cn1
0.77	-1.23	O=C(CN1C(=O)C2CC=CCC2C1=O)NCC1COc2ccccc2O1 (centres undefined)
0.7	0.29	Nc1nc(-c2cccnc2)nn1C(=O)c1ccc(F)cc1
1.64	0.37	COc1ccc(OC)c(CCNC(=O)c2ccc(CS(=O)Cc3ccc(Cl)cc3)o2)c1 (centres undefined)
0.36	1.02	COc1cc(OC)c(OC)cc1/C=N/NC(=O)c1ccc(CSc2nc(C)cc(C)n2)cc1
1.11	-0.37	CN=C1C([N+](=O)[O-])=CC=C2C1=NC1(CCCCC1)N2O
2	-0.45	O=C(NC1CCC(O)CC1)c1ccc(S(=O)(=O)NCc2ccco2)cc1 (centres undefined)
1.68	-1.71	CCO[C@@H]1OC(C(=O)O)=C[C@H](c2ccccc2)[C@H]1CCCO
3.07	3.45	O=C1CSC(c2cccc([N+](=O)[O-])c2)N1c1ccc(O)cc1 (centres undefined)
0.33	0.95	CN(C(=O)c1ccc(OC2CCN(S(=O)(=O)N(C)C)CC2)cc1)C1CCCCC1
1.7	-0.41	O=C(CN1C(=O)C2(OCCCO2)c2ccccc21)NCc1ccccc1
0.7	-0.24	O=C(COC(=O)C1=Cc2ccccc2OC1)NC1CCCC1
0.71	-1.42	CCN(CC)c1ccc(/C=N/NC(=O)C2CC2)cc1
0.6	0	O=C1OC(Nc2ccc(Cl)cn2)c2ccccc21 (centres undefined)

Additional results.
KCNQ2 pot	KCNQ2 pot baseline	smiles
0.41	0.84	Cc1sc2ncnc(N/N=C/c3ccc(O)cc3)c2c1C
2.01	0	O=C(NCC(=O)N1CCOCC1)c1ccccc1
1.31	2.3	O=C(Cc1ccc(S(=O)(=O)N2CCCC2)s1)N1CCN(c2ccc(F)cc2)CC1
1.42	1.01	COc1cccc(N=Nc2c(=O)[nH]n3c(=O)c4c([nH]c23)CCC4)c1
0.05	-0.68	Cc1cc(/C=C2/NC(=O)N(c3ccccc3)C2=O)c(C)n1C(C)C
0.64	-0.4	COc1ccc(-c2c(NC(=O)c3ccco3)oc3ccccc3c2=O)cc1
0.01	1.43	COc1ccc(CCNC(=O)CSCc2n[nH]c(=O)[nH]2)cc1OC
0.18	-0.04	CC1CCCN(C(=O)COC(=O)C2CCN(S(=O)(=O)c3c(Cl)cccc3Cl)CC2)C1 (centres undefined)
0.63	-0.33	Cc1ccc(C)c(NS(=O)(=O)c2ccc(NC(=O)c3ccco3)cc2)c1
0.68	0.57	CCOC(=O)CCCNC(=O)COC(=O)c1ccc(O)cc1
0.47	-0.18	COc1ccc(/C=C/C(=O)NC2CCCCCCC2)cc1S(=O)(=O)N1CCOCC1
1.96	-1.94	O=C(CC1C(=O)NCCN1Cc1cccc(C(F)(F)F)c1)NCCc1cnccn1 (centres undefined)
0.39	0.3	O=C(NC1CCS(=O)(=O)C1)c1ccc(Br)o1 (centres undefined)
2.21	-2.26	Cc1occc1C(=O)N/N=C/c1ccc(-c2cccc([N+](=O)[O-])c2)o1
1.12	0.46	O=C(O)CCCN1C(=O)C2C3c4ccccc4C(c4ccccc43)[C@@H]2C1=O (some centres undefined)

(list continues)
KCNQ2 pot	KCNQ2 pot baseline	smiles
0.23	-4.7	CCSc1c([N+](=O)[O-])c(=O)n(-c2ccccc2)c2ccccc12
0.77	-1.14	O=c1cc(CSc2nnc(-c3ccco3)o2)c2ccccc2[nH]1
0.22	-0.07	COc1ccc(S(=O)(=O)N(C)c2ccc(C(=O)NCCC(C)C)cc2)cc1
0.24	1.34	O=c1[nH]c2ccccc2c2cn(-c3ccccc3)nc12
0.69	-2.2	O=C(NC(Cc1c[nH]c2ccccc12)C(=O)O)c1ccco1 (centres undefined)
0.51	-1.37	COC(=O)c1ccc(NC(=O)NC2CCCCC2)cc1
1.19	0.01	Cc1cccc(C)c1NC(=O)CSc1nnc(C2CCCCC2)o1
0.43	-0.92	CCCn1c(SCC(=O)Nc2cccc(Cl)c2Cl)n[nH]c1=O
0.75	1.6	CCOC(=O)c1sc(NC(=O)CCN2C(=O)c3ccccc3C2=O)c(C(=O)OCC)c1C
0.21	-0.7	COc1cccc(-n2ccnc2SCC(=O)Nc2nccs2)c1
0.36	-0.64	COc1ccccc1N(CC(O)Cn1c(C)nc2ccccc21)S(=O)(=O)c1ccccc1 (centres undefined)
0.41	-1.38	O=C(Cn1cc[n+](CC(=O)c2ccccc2)c1)c1ccccc1
1.46	1.8	Cc1cc(NC(=O)C(C)C)ncc1NC(=O)CCc1ccccc1
0.47	0.37	CSc1ccc(/C=C2/C(=N)N3N=C(CC(=O)N4CCCC4)SC3=NC2=O)cc1
1.85	-1.06	O=C(NCC1CCCO1)C(=O)N/N=C\c1ccc2c(c1)OCO2 (centres undefined)

(list continues)
KCNQ2 pot	KCNQ2 pot baseline	smiles
1.89	1.3	CCCCOC(=O)n1c(=S)oc2cc(Cl)ccc21
0.35	-0.95	COc1ccc(NC(=O)C(NC(=O)OC(C)(C)C)C(C)OCc2ccccc2)cc1 (centres undefined)
0.53	-1.73	CSCCC(NC(=O)/C(=C\c1ccco1)NC(=O)c1ccco1)C(=O)O (centres undefined)
1.67	-1.1	COc1ccccc1C(=O)Nc1cc(C)c(OCC(=O)N2CCOCC2)c(C)c1
0.66	-1.67	O=C(O)C1C2CCC(C2)C1C(=O)NCCC1=CCCCC1 (centres undefined)
1.9	0.21	CCCOc1ccc(CCC(=O)N/N=C/c2ccc([N+](=O)[O-])o2)cc1
0.01	-1.39	CCOc1ccc(N(CC(=O)N2CCOCC2)S(=O)(=O)c2ccc(Cl)cc2)cc1
0.29	-0.37	CCOc1nc(C)cc(COC)c1C(N)=O
0.34	0.19	O=C(CN1C(=O)NC(c2ccccc2)(c2ccccc2)C1=O)Nc1ccc2[nH]c(=O)[nH]c2c1
0.59	-1.61	CC(C)(CO)CNC(=O)c1ccc(OC2CCN(C(=O)C3CC3)CC2)cc1
3.1	-1.18	Cc1csc2c(N3CCN(C(=O)NC(C)(C)C)CC3)ncnc12
0.41	0.1	C/C(=N\OC(=O)c1ccccc1F)c1nccs1
0.61	1.89	COc1ccc(NC(=O)Cn2cc(C(=O)c3ccco3)c3ccccc32)cc1
1.39	0.03	CCOC(=O)C1CCCN(C(=O)CCCn2nc(C)n3c(cc4sccc43)c2=O)C1 (centres undefined)
1.42	-1.62	CN1CCN(/N=C/c2ccc(OCc3ccccc3)cc2)CC1

4 of the entries above in order of the KCNQ2 pot baseline value, highest first.
KCNQ2 pot	KCNQ2 pot baseline	smiles
3.07	3.45	O=C1CSC(c2cccc([N+](=O)[O-])c2)N1c1ccc(O)cc1 (centres undefined)
0.12	0	CC(C)=CCN1CCN(Cc2nc(-c3ccc(F)cc3)cs2)CC1CCO (centres undefined)
0.18	-0.04	CC1CCCN(C(=O)COC(=O)C2CCN(S(=O)(=O)c3c(Cl)cccc3Cl)CC2)C1 (centres undefined)
0.23	-4.7	CCSc1c([N+](=O)[O-])c(=O)n(-c2ccccc2)c2ccccc12

Next results.
KCNQ2 pot	KCNQ2 pot baseline	smiles
0.36	1.33	CC(C)[C@H](NC(=O)C1CCN(S(=O)(=O)c2ccccc2)CC1)C(=O)NCc1ccncc1
0.16	0.77	Cc1ccc(C(=O)NCc2ccc3c(c2)OCO3)cc1
1.44	0.49	COC(=O)Cc1ccc(NC(=S)NN2CCOCC2)cc1
0.5	-0.46	CSc1nc(N)nc(C2CC2)n1
0.98	-0.25	Cc1nnsc1C(=O)NNC(=O)c1cccc2ccccc12
0.07	-0.76	CCC1SC(CC)C(=O)N(CC(=O)Nc2ccc3c(c2)OCO3)C1=O (centres undefined)
1.49	0.22	O=C(Nc1cccc(S(=O)(=O)N2CCCCC2)c1)C1CC(=O)N(c2ccc3c(c2)OCCO3)C1 (centres undefined)
1.29	-0.07	CCCC(=O)Nc1ccccc1NC(=O)c1ccc(OCC)c(OCC)c1
1.61	-0.02	CCCSc1nc(=S)n(Cc2ccccc2)c(C)c1C(C)=O
0.5	0	O=c1[nH]c(/C(Cl)=C/c2cccc(C(F)(F)F)c2)nc2cc(Cl)ccc12
